Bioassay records (PubChem BioAssay)
aSyn UTR inh: MLPCN primary screen, SNCA 5' untranslated region; 0.82% of 300,000 active; inhibition, % (tested at 7.5 µM); alpha-synuclein 5'UTR reporter, inhibitor activity; AID 1813; in the data active = inhibition above about 60%;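 note: H4 neuroglioblastoma cells stably carrying SNCA 5'UTR luciferase fusion; 0% = DMSO wells and 100% = positive control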
KLF5 inhibitor: inhibitors of KLF5 expression; DLD-1 KLF5 promoter-luciferase reporter, luminescence; inhibition, % at 5 µM; AID 1700; 0.23% of 290,000 active;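 active = inhibition above a per-plate limit of that plate's mean compound inhibition plus 3 SD, cut at about 60% in these data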;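 note: 0% = DMSO wells and 100% = LY294002 at 200 µM; higher means less KLF5 promoter-driven luciferase light; inactives centre near -14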
Platelet DG rel: platelet dense granule release activity; 0.22% of 300,000 active; human platelet-rich plasma, SFLLRN dense granule ATP release, luminescence; inhibition, %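 (compounds screened at 7.5 µM in platelet-rich plasma)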;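 active = mean replicate score, as percent of positive control, at or above 50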
AI-2 QS mod: modulates the Vibrio harveyi AI-2 quorum sensing system; Vibrio harveyi JMH597 AI-2 luminescence/OD600 ratio, 9 h; hits give low values; strain lacks LuxN and CqsS sensors; 0 = neutral-control median; activity change, % at 7.5 µM; 0.4% of 300,000 active; AID 2094; in the data active = activity change below about -75%, passing the limit was not always enough;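 note: luminescence divided by OD600 gain over 9 h not by final OD600 alone; inactives centre near 13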
IEC-6 cytotox: IEC-6 cytotoxicity, counter-screen for KLF5 inhibitors; 0.78% of 290,000 active; inhibition, % at 5 µM; AID 1825; luminescence viability; in the data active = inhibition above about 22%;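 note: 0% = plate median of test compound wells and 100% = cytotoxic reference compound wells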
SKKanGAS inh: blocks kanamycin growth of S. pyogenes SKKanGAS strain. 1.3% of 300,000 active. BacTiter-Glo, 6 h. AID 1662. inhibition, % at 7.5 µM;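 active = mean replicate score, as percent of positive control median, at least 50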;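 note: strain carries kanamycin resistance gene driven by streptokinase promoter and grows in 40 µg/ml kanamycin; loss of luminescence reflects streptokinase promoter inhibition or plain growth inhibition; 0% = median of DMSO wells and 100% = positive control at its reference dose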
HSF1 inh: HSF1 inhibition; NIH3T3-HGL HSE-luciferase, MG132-induced, luminescence 8 h; hits give low values; activity change, negative = inhibition, % at 7.5 µM (by protocol); 0.77% of 300,000 active; AID 2098;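 active = more than half of replicate wells show activity change below -50%, luminescence cut by over half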;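 note: luciferase reports HSF-1 transcriptional activity via heat shock element; 0% = median of DMSO wells and -100% = zero luminescence signal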
HSF-1 act: increases HSF-1 driven luciferase reporter signal; NIH3T3-HGL HSF-1 luciferase reporter, MG132, 8 h; 100% = twice DMSO control signal; 1.7% of 300,000 active; activation, % at 9 µM;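 active = mean replicate activation of at least 50% with a set share of replicates each reaching 50%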;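 note: 0% = median of the neutral control wells and 100% = twice that signal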
HSP90 refold inh: HSP90 refolding inhibition in rabbit reticulocyte lysate. luciferase refolding luminescence, 3 h. 0.91% of 290,000 active. inhibition, % at 5.6 µM;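 active = inhibition above the screen-wide mean plus 3 SD, computed separately per campaign, cut at about 16% in these data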;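 note: 0% = DMSO wells and 100% = 60 µM geldanamycin wells; inhibitors lower the luminescence because luciferase stays unfolded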
Starred values were filed as active, the others as inactive; / = not tested or not shown.

SMILES | aSyn UTR inh | KLF5 inhibitor | Platelet DG rel | AI-2 QS mod | IEC-6 cytotox | SKKanGAS inh | HSF1 inh | HSF-1 act | HSP90 refold inh
CCOC(=O)c1[nH]c2ccc(Br)cc2c1NC(=O)CNC | 6 | 1 | -7 | -4 | 6 | -5 | 1 | 9 | -1
O=S(=O)(c1cccc2nsnc12)N1CCN(C/C=C\c2ccccc2)CC1 | 23 | 1 | -1 | 28 | 8 | 2 | -5 | -5 | -4
Cc1ccc(-n2c(=O)c3c4c(sc3n3c(C)nnc23)COC(C(C)C)C4)cc1 (stereo unspecified) | 12 | 10 | 23 | 38 | 5 | -2 | -8 | 26 | 1
CSC1=C(C#N)C(C)CC(=O)N1 (stereo unspecified) | -4 | -10 | 4 | 29 | -1 | -11 | -3 | 7 | -2
NC(N)=Nc1nc2ccc([N+](=O)[O-])cc2[nH]1 | -32 | -17 | -3 | -7 | 2 | -1 | -5 | 4 | 0
N/C(CCN1CCCCC1)=N/O | -15 | 4 | -12 | 3 | -4 | 7 | -5 | 3 | 3
CC1(C)CC(NC(=O)C23CCC(C)(/C(=N/O)C2)C3(C)C)CC(C)(C)N1 (stereo unspecified) | -5 | -8 | -6 | 15 | 3 | 4 | -7 | -14 | 0
COC(=O)c1ccc(CSc2nc(N3CCOCC3)c3c(c2C#N)CC(C)(C)OC3)o1 | 46 | -15 | / | 2 | -1 | -2 | 4 | 26 | 2
C[C@]12CCC(=O)C=C1CC[C@@H]1[C@@H]2C(=O)C[C@@]2(C)[C@H]1CC[C@]2(O)C(=O)CO | 9 | -8 | 1 | 20 | 0 | -5 | 1 | -3 | 0
NCCSSCCN | -3 | / | 1 | 9 | / | -4 | 1 | 12 | /
CN1CCN(c2nc(-c3cccnc3)nc3ccccc23)CC1 | -7 | -11 | -3 | 4 | 4 | -2 | -2 | 4 | -7
CCOC(=O)CNS(=O)(=O)c1cc(-c2n[nH]c(=O)c3ccccc23)ccc1C | 9 | -2 | 51* | -1 | -5 | 4 | -6 | 16 | -2
CCOC(=O)C1=C(CSc2nc3c(cc2C#N)CCC3)OC(N)=C(C#N)C1c1ccccc1 (stereo unspecified) | 1 | -11 | -13 | 13 | 2 | 1 | 17 | 18 | -4
c1cncc(-c2nc(NCc3cccs3)c3ccccc3n2)c1 | 9 | -21 | -6 | 10 | -7 | -7 | 8 | 15 | 1
Cc1[nH]nc2cn[nH]c12 | -5 | -10 | -6 | 6 | -12 | -5 | -11 | -11 | 1
CCN1CCC[C@H]1CNC(=O)c1cc(S(N)(=O)=O)ccc1OC | -4 | -5 | 1 | 7 | 0 | -2 | -3 | -14 | -1
CCOC(=O)c1c(C)n(C)c2ccc(OC)c(NC(=O)CN3CCC4(CC3)OCCO4)c12 | 23 | -14 | -2 | 6 | 5 | 2 | -5 | -15 | -1
COc1cccc(NC(=O)CSC2=C(C#N)C(c3ccco3)C3=C(CCCC3=O)N2)c1 (stereo unspecified) | -26 | 45 | -2 | 7 | 50* | 8 | 13 | 44 | -2
CC(=Nc1ccc(C)c(C)c1)C1=C(O)CCC1=O | -39 | -14 | 1 | 11 | 2 | 0 | -15 | -15 | -4
CCN(CC)CCN1C(=O)C(=O)/C(=C(/O)c2c(C)[nH]c(C(=O)OC)c2C)C1c1ccc(OC)cc1 (stereo unspecified) | -17 | -19 | 4 | 26 | -3 | 5 | -4 | -13 | -1

An excerpt of these results, as tab-separated lines.
SMILES	aSyn UTR inh	KLF5 inhibitor	Platelet DG rel	AI-2 QS mod	IEC-6 cytotox	SKKanGAS inh	HSF1 inh	HSF-1 act	HSP90 refold inh
CN1CCN(c2nc(-c3cccnc3)nc3ccccc23)CC1	-7	-11	-3	4	4	-2	-2	4	-7
CCOC(=O)c1[nH]c2ccc(Br)cc2c1NC(=O)CNC	6	1	-7	-4	6	-5	1	9	-1

The list goes on:
SMILES | aSyn UTR inh | KLF5 inhibitor | Platelet DG rel | AI-2 QS mod | IEC-6 cytotox | SKKanGAS inh | HSF1 inh | HSF-1 act | HSP90 refold inh
COC(=O)[C@@H]1CC[C@H](C)[C@@H](c2ccc(C)cc2)N1C(=O)c1ccc(/C=N/O[C@@H](C)c2cn([C@H](CO)Cc3ccccc3)nn2)cc1 | 21 | -9 | -2 | 31 | -2 | 25 | -34 | -47 | 3
O=C1C=C(O)CC(c2cccs2)C1 (stereo unspecified) | 8 | 19 | 20 | 7 | 3 | / | 0 | 12 | 4
CCCCOC(=O)CSC1=C(C#N)C(c2ccccc2OC)C(C#N)C(=O)N1 (stereo unspecified) | 5 | -31 | 1 | 13 | 2 | 3 | 4 | 6 | 0
Cc1nnc(C)n1/N=C/c1cc(Br)cc(Br)c1O | 19 | 2 | -20 | 53 | -1 | 24 | -3 | 10 | 1
CCCn1nc(Oc2nc(SC)nc(N(C)C)n2)ccc1=O | -34 | 3 | 14 | 14 | 4 | 7 | 12 | 11 | 1
CN(Cc1ccccc1)c1ncnc2ccc(Br)cc12 | 11 | -29 | 8 | -7 | 5 | 12 | -18 | -36 | -2
Cc1ccc(/C=c2\sc3n(c2=O)CN(c2ccc(Br)cc2)CN=3)o1 | -34 | 1 | 0 | 27 | -9 | 10 | 7 | -4 | 0
CCOC(=O)c1sc(-n2[nH]c(C)cc2=O)nc1C | 2 | 2 | -2 | 22 | 0 | 18 | -37 | -39 | 2
OC1(c2cccc(C(F)(F)F)c2)CCN(c2ncnc3c2[nH]c2ccccc23)CC1 | 9 | -15 | -2 | 23 | 8 | 28 | -2 | 10 | -2
CCC1SC2=NC(C)=C(C(=O)OCCOC)C(c3ccc(C(=O)OC)cc3)N2C1=O (stereo unspecified) | 6 | -4 | 1 | 18 | -2 | 2 | 3 | 11 | 3
Clc1nc(-c2n[nH]nc2Cl)n[nH]1 | 2 | -14 | 1 | 7 | -6 | 2 | -12 | -33 | -3
CCCCCOc1ccc(Cl)cc1CN1CCOCC1 | -78 | -18 | -11 | 30 | 2 | 6 | -1 | 0 | 1
C=C(Br)Cn1c(CCCC)nc2ccccc21 | 6 | 4 | -1 | 22 | -1 | 9 | -5 | 4 | 7
Cc1cc(C)nc(N(C#N)S(=O)(=O)c2ccccc2Cl)n1 | 13 | -19 | -4 | 10 | -5 | -5 | -8 | -12 | 2
Cc1ccc(CC2CC(=O)N(c3ccc4c(c3)OCCO4)C2=O)cc1 (stereo unspecified) | 6 | -18 | -5 | 27 | -1 | 3 | -2 | 9 | -2
O=C(c1cccs1)N1CCC(N2CCN(c3ccccc3)CC2)CC1 | -3 | -7 | 2 | -2 | -3 | -6 | 0 | -3 | 3
CCCCc1nc(N2CCOCC2)c(C#N)c2c1COC(C)(C)C2 | 32 | -10 | -10 | 14 | -4 | -8 | -3 | 13 | 6
Cc1ccc(S(=O)(=O)NC(=O)NN2CC3CCCC3C2)cc1 (stereo unspecified) | 5 | -46 | -9 | 44 | -4 | 10 | -4 | 2 | 4
CCCCOc1ccc(-c2nnc(N)s2)cc1 | -27 | -32 | -1 | 28 | 1 | -2 | 12 | 46 | -1
O=P(Cc1nnco1)(c1ccccc1)c1ccccc1 | -22 | -19 | 0 | 7 | -2 | -4 | -4 | 4 | -2
CCn1cc(C(=O)O)c(=O)c2cc3c(cc21)OCO3 | -4 | -9 | 0 | 12 | 7 | -2 | -7 | 2 | 5
COc1cc(C2C(C(C)=O)=C(O)C(=O)N2c2ccc(Br)cn2)ccc1O (stereo unspecified) | -11 | -61 | -2 | 15 | -2 | 2 | 2 | 14 | 3
CN(C)CCCN(CCCNC(=O)/C=N/O)Cc1ccccc1 | -7 | -8 | -9 | -1 | 0 | -15 | -17 | 2 | 4
COc1ccc(OC)c(C2/C(=C(/O)c3ccc(C)cc3)C(=O)C(=O)N2Cc2ccco2)c1 (stereo unspecified) | 6 | -7 | 2 | -1 | -1 | 7 | 2 | 23 | -3
CN(C)CC/C=C1/c2ccccc2Sc2ccc(Cl)cc21 | -26 | -22 | 12 | 16 | -10 | 4 | 1 | -2 | -1
CSc1nnc(N(CCC#N)CCC#N)s1 | 0 | 6 | -5 | -4 | -9 | 2 | -7 | 0 | -1
CN(Cc1c(O)ccc2c1oc(=O)c1ccccc12)C1CCCCC1 | -29 | -2 | 7 | 23 | 5 | 0 | 14 | 28 | 2
COc1ccc(/C(O)=C2\C(=O)C(=O)N(c3cc(C)on3)C2c2cccc(OC)c2OC)cc1C (stereo unspecified) | -13 | -38 | 4 | 25 | 0 | 10 | -7 | 8 | 0
CCCCCCOC(=O)CCn1[nH]c(=O)c2ccccc2c1=O | 7 | -20 | -7 | 12 | -5 | -5 | -2 | 8 | 1
O=C1CSC(=S)N1/N=C/c1ccc(Cl)c([N+](=O)[O-])c1 | 9 | 6 | 0 | 28 | -8 | 3 | -2 | -10 | 2
CCN1C(=O)CC(N2CCN(c3ccc(OC)cc3)CC2)C1=O (stereo unspecified) | 20 | -14 | 2 | 10 | 2 | 12 | 0 | -1 | -1
CC(=O)C1=C(NC(=O)c2ccccc2F)C[C@@H]2[C@H]1C2(C)C | -5 | -3 | 8 | 11 | 0 | 6 | -1 | 1 | 1
CCOC(=O)N1CCN(C2OC(=O)c3ccccc32)CC1 (stereo unspecified) | -3 | 8 | 22 | 10 | 2 | -7 | -6 | 18 | -3
COCCOCCOCCC(=O)NC1CC2CCC1(C)C2(C)C (stereo unspecified) | 19 | -16 | 5 | 5 | 0 | -6 | -3 | -4 | -5
CCc1nc2n[nH]c(N)c2c2c1CCCC2 | 9 | -25 | 11 | 31 | -2 | -1 | 4 | 4 | 0
CCC1(C)Cc2c(sc3nc4n(c(=O)c23)CCS4)CO1 (stereo unspecified) | 14 | 16 | -11 | 9 | 3 | -6 | 0 | -17 | -1
Cc1nc(NCCN)c(C#N)c2c1COC(C)(C)C2 | 24 | -48 | -1 | 34 | 1 | 1 | -12 | -3 | 4
c1cncc(CNc2nc(-c3cccnc3)nc3ccccc23)c1 | 12 | -31 | 1 | 14 | 0 | 4 | 1 | 5 | 2
COC(=O)NCC12CC3CC(C1)CC(CNC(=O)OC)(C3)C2 | 1 | -12 | 2 | 22 | -10 | 1 | 5 | 12 | -1
COc1ccc(C(O)C(CN2CCOCC2)c2ccccc2)cc1 (stereo unspecified) | -12 | 0 | -2 | 21 | -9 | 3 | 1 | -4 | -2
CC(=O)OC[C@H]1O[C@@H](O/N=C/C[C@@H]2C=C[C@H](OC(C)=O)[C@@H](COC(C)=O)O2)[C@H](OC(C)=O)[C@@H](OC(C)=O)[C@@H]1OC(C)=O | -15 | -17 | -1 | 16 | -2 | 11 | -4 | -5 | -2
CCN(CC)CCOCCOC(=O)C1(c2ccccc2)CCCC1 | -25 | / | -2 | 0 | / | -2 | -3 | -16 | /
CC(=O)OC12CC3CC(C1)C(=NO)C(C3)C2 | -14 | -17 | 3 | 20 | -2 | 1 | -7 | -20 | -2
CCn1c(SCC(=O)NC2CCCCC2C)nnc1-c1ccc(OC)cc1 (stereo unspecified) | -3 | -21 | 5 | 12 | 2 | 0 | 6 | 13 | -4
CN1CCc2c(C#N)c(N3CCCCC3)nc(N3CCOCC3)c2C1 | 5 | -17 | 2 | 13 | 6 | 2 | -7 | -11 | 3
CN=C1c2cc3c(Br)c(OC)ccc3n2CCN1C | -37 | -9 | 3 | 8 | 3 | 5 | -9 | -8 | 0
COCc1[nH]nc2c1C(c1cccc(OC)c1)C(C#N)=C(N)O2 (stereo unspecified) | -12 | -15 | 9 | 2 | -2 | 5 | -2 | 1 | 0
Cc1nc(-c2coc3cc(OCC(=O)O)ccc3c2=O)cs1 | 41 | 22 | 15 | 18 | 3 | 3 | -15 | -31 | 8
COc1ccc(OC)c(C2=Nn3c(nnc3C3CCCCC3)SC2)c1 | 25 | -18 | -4 | 0 | 4 | -1 | 7 | 18 | -6

This is a subset; rates above refer to the full screens.
